RN4220 kill = kills Staphylococcus aureus RN4220; S. aureus RN4220 growth, OD600, 16 h; inhibition, % (test concentration not listed); 0.33% of 330,000 active;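 active means z-score of -3 or lower and OD600 up to 0.18 on both plates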;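 further: plate controls were untreated cells for no effect and reference antibiotic for full effect; stock transfer was 100 nL into about 80 µL; one replicate is shown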
PrP UTR inh = inhibition of PrP 5' UTR reporter expression. cell-based PrP 5' UTR mRNA reporter, plate reader. 0.35% of 340,000 active. inhibition, % (test concentration not listed). AID 488862;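 active means every replicate at 50% or more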;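 further: 0 = median of the neutral control wells; tested in H4 reporter cells; numbers are from one replicate; inactives centre near -14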
Autofluor counter = flagged as autofluorescent in microsphere protease counterscreen; compound autofluorescence counterscreen, microsphere flow cytometry; active compounds read high; fluorescence intensity (no concentration beside the values); 3.1% of 360,000 active;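 active means at least 3 SD above the mean of all compounds, about 16000 in these data; inconclusive means too few beads counted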;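 further: 100 nL of 1 mM stock went into each well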
Sa ugtP lethal = compounds lethal to S. aureus RN4220 ugtP deletion mutant; 0.54% of 330,000 active; OD600 growth, 16 h; some inactives read as strong as hits; growth inhibition, % (test concentration not listed);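 active means z-score under -3 and OD600 up to 0.15 on both plates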;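 further: plate controls were untreated wells for no effect and antibiotic for full effect; wells of about 80 µL received 100 nL stock; the first replicate is given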
BJeLR lethal = kills HRASV12-expressing BJeLR cells. AID 1554. inhibition, % (no concentration beside the values). BJeLR (HRASV12) viability, CellTiter-Glo ATP luminescence, 48 h; reference of the scale not given here. 0.17% of 300,000 active;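 active means replicate mean above 50%; inconclusive means above 50% but judged a plate artefact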;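 further: 50 nL library stock added to about 25 µL; numbers are from one replicate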
Mtb hypoxia rep = reduces hypoxia-regulated biosensor signal in M. tuberculosis; 0.1% of 300,000 active; M. tuberculosis hypoxia-regulated fluorescent reporter, fluorescence; AID 1159583; fluorescence inhibition, % (concentration not given with the values);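 active means 35 to 45% if threefold the growth effect, above 45% if 1.5-fold the growth effect; inactive means the rest, general growth blockers included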;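 further: wells of about 50 µL received 100 nL stock; 0% = vehicle wells and 100% = reference inhibitor wells; whole bacteria with a GFP reporter of the hypoxia response; strong numbers were not always called active; many hits fall short of the cut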
Mtb hypoxia rep growth = further read-out of Mtb hypoxia rep, marked with its call; growth inhibition, %; measured here: M. tuberculosis growth (absorbance);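 0% = vehicle and 100% = reference antibiotic; read after six days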
Active calls of the source: *; ? = inconclusive; . = not tested or not shown.

SMILES	RN4220 kill	PrP UTR inh	Autofluor counter	Sa ugtP lethal	BJeLR lethal	Mtb hypoxia rep	Mtb hypoxia rep growth
Cc1cccc(-c2nnc(SCCOc3ccc4c(C)cc(=O)oc4c3)o2)c1	1.7	7	2323	10	0	11	13
CC(C)COP(=O)(c1ccc(N(C)C)cc1)C(Nc1ccccc1)c1ccccc1 (stereo not given)	2.0	-6	2508	-22	6	3	11
CC(NC(=O)c1ccco1)C1CCCO1 (stereo not given)	-3.3	.	7703	-6	3	3	2
CCOc1ccc(NC(=O)CN(C)C(=O)c2ccc(OCc3ccccc3)c(OC)c2)cc1OCC	-1.0	-25	4633	2	-2	4	-5
Cc1c(C(c2ccc(O)cc2)c2c(C)n(C)n(-c3ccccc3)c2=O)c(=O)n(-c2ccccc2)n1C	0.8	0	4078	-1	-2	0	-1
Cc1ccccc1NC(=O)Cn1cnc2c(oc3nc4c(cc32)COC(C)(C)C4)c1=O	2.5	-14	2469	7	3	9	1
Clc1nccc(NCc2ccccc2)n1	1.4	-16	3086	3	1	15	7
O=C(COc1ccc(Cl)cc1)NNC(=O)c1cccnc1	4.4	-27	4504	4	-3	11	7
O=C(C1=C[C@H](c2coc3ccccc3c2=O)C[C@H](OCc2ccc(CO)cc2)O1)N1CCN(Cc2ccccc2)CC1	.	82*	3367	.	-3	.	.
CC(=O)N1CCN(C(=O)c2ccc3c(c2)OCCO3)CC1	2.3	-19	5994	1	7	5	-1
CCOc1ccc(C(=O)n2cc(C(=O)OC)c3ccccc32)cc1OCC	-0.4	-25	3595	8	1	9	8
O=C(NCc1ccccc1)c1c(F)c(F)c(F)c(F)c1F	5.5	-16	3761	-1	8	.	.
CCN(CC)S(=O)(=O)c1ccc(C(=O)NNC(=O)c2cccs2)cc1	6.5	-15	8921	6	2	1	2
CCOC(=O)C1CCCN(CC(O)COC(c2ccccc2)c2ccccc2)C1 (stereo not given)	4.3	-11	4886	6	-10	-17	-2
CC1CCC(C(=O)NC(C(=O)NCCCN2CCOCC2)C(C)C)CC1 (stereo not given)	1.0	-15	10418	-3	-3	-6	6

Compound profiles (already shown). Values in the order: RN4220 kill | PrP UTR inh | Autofluor counter | Sa ugtP lethal | BJeLR lethal | Mtb hypoxia rep | Mtb hypoxia rep growth
CC(NC(=O)c1ccco1)C1CCCO1 (stereo not given) across the screens: -3.3 | . | 7703 | -6 | 3 | 3 | 2
O=C(COc1ccc(Cl)cc1)NNC(=O)c1cccnc1 across the screens: 4.4 | -27 | 4504 | 4 | -3 | 11 | 7
CC(C)COP(=O)(c1ccc(N(C)C)cc1)C(Nc1ccccc1)c1ccccc1 (stereo not given) across the screens: 2.0 | -6 | 2508 | -22 | 6 | 3 | 11

Next part.
SMILES	RN4220 kill	PrP UTR inh	Autofluor counter	Sa ugtP lethal	BJeLR lethal	Mtb hypoxia rep	Mtb hypoxia rep growth
O=C(NCc1ccco1)/C(=C/c1cccc([N+](=O)[O-])c1)NC(=O)c1ccco1	1.1	-9	4367	12	6	4	5
COC(=O)CSc1nnc(CNC(=O)c2ccccc2F)n1-c1ccccc1	9.5	-27	3931	5	1	9	10
Oc1cc(O)c2c(c1)O[C@H](c1ccc(O)c(O)c1)[C@@H](O)C2	.	-11	5905	.	9	.	.
O=C(CCSCc1cccc(Cl)c1)NC1CCCC1	1.7	-13	2460	6	-7	6	3
O=C(CCc1nc2ccccc2s1)c1ccccc1	4.5	-10	7369	9	6	16	12
CC(C)CCNC(=O)c1ccc2c(c1)ncn2C1CCCCC1	-3.8	-19	19635*	-3	6	-3	6
COc1ccc(-c2nnc3ccc(SCC(=O)Nc4cc(C)on4)nn23)cc1OC	1.6	0	4349	-6	-6	8	11
COc1ccc(CNC(=O)CC(C)=NNC(=O)COc2ccccc2)cc1	2.4	.	.	9	.	7	2
COc1ccc2nc(/C=N/NC(=O)[C@H](CCSC)NC(=O)OC(C)(C)C)ccc2c1	.	-2	2597	.	0	.	.
COc1cc(N)c2ncccc2c1OC	0.5	-21	4036	0	.	24	12
O=C(NCC(c1ccco1)N1CCCC1)c1ccccc1Sc1ccc(C(F)(F)F)cc1[N+](=O)[O-] (stereo not given)	-2.1	-30	.	9	-5	7	6
CCC1(C(=O)c2ccccc2)C2c3cc(Br)ccc3OC(=O)C21C(=O)N1CCOCC1 (stereo not given)	-1.5	-1	2997	-8	4	-2	-1
O=C(NNc1nc(-c2ccccc2)cs1)c1ccco1	-10	-14	2243	8	-5	4	7
CCCCOc1ccc(NC(=O)C(=O)NCCC2=CCCCC2)cc1	1.3	6	4480	0	45	.	.
Cc1nnc2n(-c3ccccc3)c(=O)c3c4c(sc3n12)COC(C)(C)C4	1.2	-10	4254	1	-1	.	.
Cc1nn(C)cc1C1C(C#N)=C(N)N(c2ccc(F)c([N+](=O)[O-])c2)C2=C1C(=O)CCC2 (stereo not given)	3.1	9	7123	12	-3	9	4
COc1ccc(N(CC(=O)NN=Cc2ccc(F)cc2)S(=O)(=O)c2ccccc2)cc1	0.7	.	.	5	.	-4	4
CS(=O)(=O)N(CC(=O)Nc1ccc(S(=O)(=O)N2CCOCC2)cc1)c1ccccc1Br	8.8	-8	3571	8	-3	7	0
O=C(NNS(=O)(=O)c1ccc2ccccc2c1)c1cccs1	15	-12	2616	-8	6	15	4
NC(=O)NN=C1c2ccccc2-c2c(C(N)=O)cccc21	-2.0	.	.	-5	.	1	-3
O=S(=O)(Nc1cnc2ccccc2c1)N1CCCCCC1	4.3	-9	4054	-5	-1	.	.
COc1ccc(OCc2cc(C(=O)NC(C)c3cnn(C)c3)no2)c(Cl)c1 (stereo not given)	0.9	-54	5181	-1	3	7	9
COc1cccc(N2CCN(CC(=O)Nc3ccnn3C3CCCC3)CC2)c1	3.9	-18	7688	10	.	4	0
COc1cc(C=NN=C(N)c2nonc2N)ccc1O	5.0	.	.	1	.	7	-5
COc1ccc(OCCN2C(=O)c3ccccc3C2=O)cc1	-0.2	-22	2165	2	-1	1	1
CN(C)C(CNC(=O)c1cccc(NS(=O)(=O)c2ccc(Br)cc2)c1)c1ccco1 (stereo not given)	3.6	-6	.	7	0	-5	-7
CCOC(=O)C=c1sc(=Cc2ccc(C#N)cc2)c(=O)n1CC(=O)NCc1ccco1	11	.	.	6	.	9	1
COc1ccc(C2CC(=O)Oc3cc4c(cc32)OCO4)cc1 (stereo not given)	28	53*	4087	-5	.	0	5
Cn1/c(=N\NC(=O)C2CCCCC2)sc2ccccc21	.	-55	3569	.	-6	.	.
CCCc1[nH][nH]c(=O)c1C(c1cccc(Cl)c1)C(C#N)C#N (stereo not given)	0.2	-27	3209	15	-1	2	3
COc1ccc(NC(=O)C(=O)c2cn(CC(=O)N3CCCC3)c3ccccc23)c(OC)c1	-0.4	-8	3959	5	-3	7	4
CCN(CC)CCn1c2c(c(SCC(=O)Nc3nc4ccccc4s3)nc1=O)CCC2	2.2	-1	6201	3	14	16	6
CC(=NO)c1cc(Cl)ccc1O	3.3	.	.	11	.	-3	5
CC(C)Oc1ccc(CNCCC2(C(C)C)CCOC(C)(C)C2)cc1 (stereo not given)	1.6	-2	5940	-7	-4	9	17
COC(=O)Cn1c(CN2CCN(c3ccccc3F)CC2)nc2c1c(=O)n(C)c(=O)n2C	-12	-16	5526	2	.	1	12
COc1ccc(C(=O)n2nc(-c3ccco3)nc2N)cc1	-0.8	-6	2817	3	0	.	.
CC1CCCCN1C(=O)CSc1nc(N)cc(=O)[nH]1 (stereo not given)	0.6	-18	6659	3	-5	.	.
CNC(=O)c1c(NC(=O)c2ccc(S(=O)(=O)N3CCCCC3C)cc2)sc2c1CCN(C)C2 (stereo not given)	2.3	-5	5209	4	1	4	6
COc1ccc(CN2CCN(C(=O)c3ccc(S(=O)(=O)NCc4ccco4)cc3)CC2)cc1F	1.4	-18	4893	0	.	-3	-2
CCOC(=O)c1nnn(-c2nonc2OC)c1-c1ccccc1	10	-33	20451*	18	-4	9	2
COc1cnn(Cc2ccccc2)c(=O)c1SCc1ccccc1	1.1	-33	7084	-2	2	-12	-10
CCN1CCCC1CNC(=O)c1ccc(N2CCOCC2)c(NS(=O)(=O)c2ccc(OC)cc2)c1 (stereo not given)	1.3	-19	4360	1	2	7	-1
Cc1onc(-c2c(F)cccc2Cl)c1C(=O)NC(=S)NC1CCSC1=O (stereo not given)	-6.0	-11	2584	-5	-6	-8	-3
O=C(NC(=S)NC(CO)c1ccccc1)c1ccc(F)cc1 (stereo not given)	0.1	5	3709	-1	3	-1	14
CCn1cc(C(=O)O)c(=O)c2cc(F)c(NN=Cc3ccccc3)cc21	24	.	.	10	.	15	10
CC(=O)N1CCN(C(=O)c2cc(S(=O)(=O)NCc3ccccc3)ccc2C)CC1	-1.4	-24	5499	0	12	3	9
CC1(C)C2CCC1(CS(=O)(=O)NCc1ccc(Cl)cc1Cl)C(=O)C2 (stereo not given)	3.0	-22	5641	-9	-6	5	2
Cc1cc(C=O)c(C)n1-c1ccc(N2CCCC2)c([N+](=O)[O-])c1	5.0	-2	3211	7	1	12	11
CCOC(=O)N1CCC(N(C(=O)Nc2ccccc2)C(C)CC)CC1 (stereo not given)	1.3	-15	5551	8	-5	12	6
Brc1cccc(OCCOCCn2ccnc2)c1	-2.6	-11	4493	8	4	.	.
CC(=O)OC1N=C(c2ccc(Cl)cc2)c2cc(Br)ccc2NC1=O (stereo not given)	-0.3	-15	3925	-23	1	3	7
CCOCCCNC(=O)C(c1ccc(C)cc1)N(Cc1cccs1)C(=O)c1ccccn1 (stereo not given)	0.8	-10	3058	2	0	9	3
COc1cc(C(=O)Nc2ccc(NC(=O)c3cccc(Cl)c3)nc2)cc(OC)c1OC	-2.0	-6	6815	-3	-2	-6	8
CC(NS(=O)(=O)c1ccc(Br)s1)c1ccccc1 (stereo not given)	6.4	-4	3184	-2	4	21	7
COc1cc(NC(=O)COC(=O)CCOc2ccc(C)cc2)cc(OC)c1	5.2	-17	4180	6	-1	4	1
O=C(COC(=O)Cc1c[nH]c2ccccc12)Nc1c(Cl)cccc1C(F)(F)F	9.4	-15	?	3	-5	12	1
CCOC(=O)c1c(NC(=O)C[n+]2ccc(N(C)C)cc2)sc(C)c1C	0.5	-29	5041	-7	5	7	2
COc1ccc(-c2nn(-c3ccccc3)cc2/C=C2/SC(=S)N(Cc3ccco3)C2=O)c(C)c1	-0.8	-4	12304	6	-18	1	0
O=C(O)c1cc(S(=O)(=O)Nc2ccc3oc(=O)sc3c2)ccc1O	-4.2	.	.	4	7	.	.
COC(=O)c1ccccc1S(=O)(=O)NNC(=O)C12CC3CC(CC(C3)C1)C2	0.6	-3	8788	2	.	-4	3
Later entries
SMILES	RN4220 kill	PrP UTR inh	Autofluor counter	Sa ugtP lethal	BJeLR lethal	Mtb hypoxia rep	Mtb hypoxia rep growth
COc1cc2cc(CCCOC(=O)c3ccc(Br)cc3)oc(=O)c2cc1OC	11	-18	4103	9	.	22	15
O=[N+]([O-])c1cccc(-c2ccc(C(=S)N3CCOCC3)o2)c1	6.2	-149	2744	11	-3	-3	12
O=C1NCCCC1C(=O)N1CCCCC1 (stereo not given)	4.8	-19	4233	5	-7	8	5
Cc1cc(C)c2c(n1)nn1c(-n3ccnc3)cc(C)nc21	0.7	-5	3278	9	.	7	5
Cc1ccc(Nc2nc(N)nc(CN3CCN(Cc4ccccc4)CC3)n2)cc1Cl	6.9	-99	4506	0	14	7	0
CCOC(=O)N1CCN(S(=O)(=O)c2ccc(C(=O)N(CCN(C)C)c3nc4ccc(CC)cc4s3)cc2)CC1	0.4	-9	.	-4	-4	5	1
Nc1nc(C2CC(=O)OC23CCCCC3)cs1 (stereo not given)	1.9	-21	3585	3	8	5	0
C[C@]12CCC[C@H](O1)c1c(cc3c(c1O)C(=O)c1c(O)cc(O)cc1C3=O)O2	3.7	-32	5704	-3	7	.	.

Some of the entries so far, with two lines to a compound:
Order of results – RN4220 kill	PrP UTR inh	Autofluor counter	Sa ugtP lethal	BJeLR lethal	Mtb hypoxia rep	Mtb hypoxia rep growth
COc1cc2cc(CCCOC(=O)c3ccc(Br)cc3)oc(=O)c2cc1OC
  11	-18	4103	9	.	22	15
O=[N+]([O-])c1cccc(-c2ccc(C(=S)N3CCOCC3)o2)c1
  6.2	-149	2744	11	-3	-3	12
O=C1NCCCC1C(=O)N1CCCCC1 (stereo not given)
  4.8	-19	4233	5	-7	8	5

Outcome played no part in choosing rows; overall some 4% were active at least once.
